Mtb bLac sens = beta-lactam sensitization of Mtb H37Rv. M. tuberculosis H37Rv growth with meropenem, percent inhibition; hits of this screen are not shown here. inhibition, % at 25 µM. actives 0.27% (n = 330,000). AID 434955;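 active = about 74% or more and at least 40 points above the plate without the antibiotic, then above 30% in a dose series; inconclusive = first-round hits that could not be retested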;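 note: growth measured after seven days incubation then overnight dye step; 0% = bacteria only wells and 100% = bacteria with antibiotic; twin plates without the antibiotic show which effects depend on it; some results filed as inactive read as strong as hits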
Arbovirus inh = blocks arbovirus infection. arbovirus infection cell-based antiviral screen. inhibition, % at 10 µM. actives 0.37% (n = 200,000). AID 1251;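 active = inhibition from about 30%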;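 note: bluetongue infection of BSR cells; cell survival read as ATP light after 72 h; 0% = infected wells without compound and 100% = uninfected wells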
RecA intein inh = Mtb RecA intein splicing inhibition | cell-free RecA intein splicing, fluorescence | AID 2221 | P9WHJ3 | inhibition, %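 (about 9 µM by stock and volumes)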 | actives 0.75% (n = 290,000); in the data active = inhibition above about 30%; inconclusive = no clear call, values can overlap the other calls;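 note: 0% = vehicle wells and 100% = reference inhibitor control wells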
Target sequence (P9WHJ3 whole entry, looked up): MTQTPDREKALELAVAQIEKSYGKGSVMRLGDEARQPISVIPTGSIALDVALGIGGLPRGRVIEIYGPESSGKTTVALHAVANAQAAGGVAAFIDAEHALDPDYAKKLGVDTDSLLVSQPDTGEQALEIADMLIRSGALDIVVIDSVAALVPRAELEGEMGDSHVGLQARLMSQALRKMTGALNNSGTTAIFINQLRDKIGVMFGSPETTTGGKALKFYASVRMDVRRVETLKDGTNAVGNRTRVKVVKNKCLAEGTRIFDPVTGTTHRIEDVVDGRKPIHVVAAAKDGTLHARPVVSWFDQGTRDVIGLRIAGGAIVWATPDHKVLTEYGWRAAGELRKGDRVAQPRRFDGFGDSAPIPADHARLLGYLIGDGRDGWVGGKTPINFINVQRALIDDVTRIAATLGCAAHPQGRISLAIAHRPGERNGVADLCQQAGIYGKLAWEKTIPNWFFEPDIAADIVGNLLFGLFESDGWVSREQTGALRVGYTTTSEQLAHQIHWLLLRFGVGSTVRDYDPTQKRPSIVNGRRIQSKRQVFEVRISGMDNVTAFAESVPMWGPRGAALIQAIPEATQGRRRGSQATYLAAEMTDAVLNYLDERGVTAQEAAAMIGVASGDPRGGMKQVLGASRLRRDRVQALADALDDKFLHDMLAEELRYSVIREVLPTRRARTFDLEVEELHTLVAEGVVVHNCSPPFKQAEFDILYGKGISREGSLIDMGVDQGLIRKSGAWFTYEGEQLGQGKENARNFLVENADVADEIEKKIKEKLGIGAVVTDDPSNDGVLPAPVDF
YopH inh = YopH (Yersinia) phosphatase inhibition | fluorescence Ex485/Em525 | inhibition, %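 (about 10 µM by stock and volumes)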 | actives 0.16% (n = 140,000);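 active = inhibition of 50% or more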;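 note: controls were vehicle for no effect and minimum signal wells for full effect; inactives centre near -20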
Mtb growth = M. tuberculosis H37Rv growth inhibitors, H37Rv strain (AID 1626); inhibition, % at 10 µM, or IC50 in µM where a hit was titrated; actives 0.95% (n = 220,000); M. tuberculosis H37Rv growth inhibition; higher % means a stronger effect;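 active = confirmed in a dose series; inconclusive = inhibition above 80% but not taken into the dose series; inactive = below 80% or under 30% at every dose of the series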;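 note: bacteria incubated seven days before Alamar blue readout; 0% = bacteria only wells and 100% = bacteria with antibiotic wells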
Arbovirus inh repeat = recorded beside Arbovirus inh, whose call it bears; inhibition, %; measured here: 10K subset replicate screen; many hits read low in the repeat;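 first of two repeat runs on a subset; 0% = infected and 100% = uninfected wells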
* marks the source's active call; other numbers are inactive results; ? = inconclusive; nt = not tested or not shown. A portion of the library. The share of hits here may be higher or lower than overall.

The first six records (preview)
SMILES | Mtb bLac sens | Arbovirus inh | RecA intein inh | YopH inh | Mtb growth | others
Cc1cccn2cc(CCNC(=O)c3ccc(Br)o3)nc12 | -2 | -3 | 0.2 | -34 | 4% | Arbovirus inh repeat=-3
COc1ccc(NC2CCCN(C(=O)CCc3cccc(F)c3)C2)cc1 (stereo not drawn) | 1 | nt | -2.1 | nt | nt
Cc1ccc(Cc2cnc(NC(=O)C3CCCO3)s2)cc1 (stereo not drawn) | 81 | 4 | 19 | -9 | >100µM*
Cc1nc(-c2ccc(Cl)cc2)sc1C1(C)CC(c2ccc(Br)cc2)=NO1 (stereo not drawn) | 6 | nt | 1.3 | nt | 7%
COC(=O)c1ccccc1S(=O)(=O)C(C)(C)C | -5 | 3 | 0.8 | -15 | -7%
CC(=O)Nc1ccc2[nH]ccc2c1 | -9 | nt | 1.7 | nt | nt

The list itself, repeating the preview:
SMILES | Mtb bLac sens | Arbovirus inh | RecA intein inh | YopH inh | Mtb growth | others
Cc1cccn2cc(CCNC(=O)c3ccc(Br)o3)nc12 | -2 | -3 | 0.2 | -34 | 4% | Arbovirus inh repeat=-3
COc1ccc(NC2CCCN(C(=O)CCc3cccc(F)c3)C2)cc1 (stereo not drawn) | 1 | nt | -2.1 | nt | nt
Cc1ccc(Cc2cnc(NC(=O)C3CCCO3)s2)cc1 (stereo not drawn) | 81 | 4 | 19 | -9 | >100µM*
Cc1nc(-c2ccc(Cl)cc2)sc1C1(C)CC(c2ccc(Br)cc2)=NO1 (stereo not drawn) | 6 | nt | 1.3 | nt | 7%
COC(=O)c1ccccc1S(=O)(=O)C(C)(C)C | -5 | 3 | 0.8 | -15 | -7%
CC(=O)Nc1ccc2[nH]ccc2c1 | -9 | nt | 1.7 | nt | nt
CCOc1ccc(CN2CCN(C(=O)c3cccc(F)c3)CC2)cc1 | -3 | 7 | -1.3 | -3 | -5%
Fc1ccc(NC(=S)Nc2cc(Cl)ccc2Cl)cc1 | -3 | 1 | nt | nt | -6%
COc1cccc(NC(=O)CSCC(=O)O)c1 | -6 | 3 | -0.3 | -29 | -10%
CCc1ccc(S(=O)(=O)Nc2c(C)nc3nc[nH]n3c2=O)cc1 | 2 | nt | 1.8 | nt | nt
COc1ccc(NC(=O)NCCCCc2ccccc2)c(OC)c1 | -8 | nt | 1.0 | nt | nt
Cc1[nH]c(C)c(S(=O)(=O)Nc2ccccc2)c1C(=O)N1CCCC1 | 4 | nt | -3.7 | nt | nt
Cc1ccc(OC(=O)c2cc(=O)c3ccccc3o2)cc1 | -3 | -2 | 1.3 | -27 | 2%
COc1ccc(CCNC(=O)/C=C/C(=O)O)cc1 | -5 | 17 | 1.9 | nt | -7%
CCS(=O)(=O)N1CCN(c2ccc(Cl)cc2[N+](=O)[O-])CC1 | 8 | 3 | -0.4 | -9 | 7%
CCCCCn1c(SCc2cccc(C)c2)nc2c1c(=O)[nH]c(=O)n2C | -1 | -4 | 0.7 | nt | 15% | Arbovirus inh repeat=-10
O=c1[nH]c(C2CCN(S(=O)(=O)c3ccc(S(=O)(=O)NC4CC4)cc3)CC2)nc2c1nnn2Cc1cccc(F)c1 | 96 | nt | -1.6 | nt | nt
COc1ccc(C(=O)C2CCCN(Cc3c(F)ccc(F)c3F)C2)c(OC)c1 (stereo not drawn) | -2 | nt | -4.4 | nt | nt
COc1ccc(NC(=S)Nc2ccc(F)cc2)c(OC)c1 | -6 | nt | -1.7 | -9 | nt
Cc1ccccc1S(=O)(=O)Cc1ccc(C(=O)NCc2ccccc2)o1 | -3 | nt | 0.8 | nt | nt
CC(=O)Nc1ccccc1NC(=O)c1ccccc1 | -6 | 4 | -1.4 | nt | 4%
COc1ccc(NC(=O)C2CCN(c3cnccn3)CC2)cc1OC | 1 | nt | 0.9 | nt | nt
CCC(COC)NCc1cn(-c2ccc(OC)cc2)nc1-c1cccc(F)c1 (stereo not drawn) | -6 | 0 | 1.1 | nt | -1%
Cc1ccc(OCc2ccccc2C)c([N+](=O)[O-])n1 | 3 | nt | 2.9 | nt | nt
Cc1ccc(CN2CC(C(=O)Nc3cccc(C)n3)CC2=O)cc1 (stereo not drawn) | -1 | nt | -1.0 | nt | nt
Cc1cc(C)n(C(=O)CNC(=O)C2COc3ccccc3O2)n1 (stereo not drawn) | 11 | -3 | 0.3 | -42 | -6%
Cc1ccc(OCC(=O)NC(=S)Nc2ccc(S(=O)(=O)Nc3cc(C)on3)cc2)c(Br)c1 | 3 | nt | -4.2 | nt | nt
O=C(CSc1nnc(-c2cccnc2)n1Cc1ccco1)c1ccc(Br)cc1 | -10 | -3 | nt | -28 | -6% | Arbovirus inh repeat=-2
CCCCCC[N+](C)(C)CC/C=C1/c2ccccc2Sc2ccc(Cl)cc21 | 100 | nt | 14 | nt | ?
COc1ccccc1NC(=O)CN1C(=O)NC(CC(C)C)C1=O (stereo not drawn) | 4 | 8 | 0.6 | -19 | -12%
CCN(CC)S(=O)(=O)c1cccc(-c2nnc(SCc3ncc(-c4ccccc4)o3)n2C)c1 | 0 | 7 | 0.7 | -33 | -7%
CN1CCN(c2ccc(NC(=O)c3cc4ccccc4o3)cc2)CC1 | 1 | nt | -2.9 | nt | nt
COc1ccc(-c2cc(C(=O)Nc3cc(Br)ccc3O)no2)cc1 | -3 | nt | 1.9 | nt | nt
COC(=O)N1[C@H](C)C=C[C@]1(Cc1ccccc1)C(=O)O | 0 | 3 | 1.0 | -10 | -5%
CC(C(=O)Nc1ccc2nccnc2c1)N1C(=O)C2C3C=CC(C3)C2C1=O (stereo not drawn) | 4 | 7 | -1.6 | -39 | 3%
O=C(Cn1c(=O)n(Cc2ccc(F)cc2)c(=O)c2ccccc21)NCC1CCCO1 (stereo not drawn) | 0 | nt | -1.0 | nt | nt
O=C(Cc1cccc2ccccc12)NN1C(=O)/C(=C\c2cccnc2)SC1=S | 4 | nt | 0.6 | nt | -14%
CCOc1ccccc1OC(=O)c1cc2ccccc2oc1=O | 10 | 5 | -2.8 | nt | 12%
CC(Oc1ccc(Cl)cc1Cl)/C(N)=N/O (stereo not drawn) | 0 | nt | 1.7 | nt | 0%
CCOc1ccc(NC(=O)c2ccc(S(=O)(=O)N3CCOCC3)cc2)cc1 | -3 | nt | 0.0 | nt | nt
Cc1ccc(C(=O)NCC(=O)Nc2ccc(C)c(S(=O)(=O)Nc3ccc(Cl)cc3)c2)s1 | 8 | -1 | -2.2 | nt | -5%
COc1cc(NC(=O)c2nnn(Cc3ccc(SC)cc3)c2N)cc(OC)c1 | 9 | -13 | -2.0 | -32 | 43%
O=C1c2ccccc2C(O)(c2ncc[nH]2)N1CCc1ccccc1 (stereo not drawn) | 0 | 13 | -2.4 | 9 | -2%
CC1(C)CC(=O)C2=C(C1)Nc1ccccc1S2 | -5 | nt | -4.9 | nt | -9%
COc1ccc(/C=C/C(=O)c2c(C)nc3ccccn23)cc1 | 5 | 11 | 2.9 | -38 | -6%
CCOc1ccccc1C(=O)NC(C(=O)NCc1ccc(F)cc1)C(C)C (stereo not drawn) | -6 | 7 | -2.4 | nt | -7%
O=C(CSc1nc(Nc2ccccc2)nc(N2CCOCC2)n1)N1CCc2ccccc21 | -10 | 16 | nt | -2 | 0%
CCCCCC(=O)Nc1c2c(nc3ccccc13)CCC2 | 27 | nt | -2.3 | nt | nt
CCCC1CCC(c2ccc(C(=O)NN)cc2)CC1 (stereo not drawn) | -1 | -23 | 4.4 | 1 | -1%
CCN(CC)CCCNC(=O)c1cn(C)c2ccc(S(=O)(=O)N(C)C3CCCCC3)cc2c1=O | 2 | nt | -1.0 | nt | nt
O=C(CCc1ccc(S(=O)(=O)NCc2ccccc2)cc1)N1CCN(Cc2ccc3c(c2)OCO3)CC1 | 13 | -2 | -0.1 | -1 | 16%
CCOc1ccc(C(=O)NC2CCN(C(=O)NCc3ccccc3)CC2)cc1 | -3 | 2 | -0.8 | -52 | -10%
C=CC[n+]1ccc2ccccc2c1C | -6 | 2 | -1.5 | nt | -3%
Cc1onc(-c2ccccc2)c1C(=O)Nc1ccc(S(=O)(=O)N2CCCCC2)cc1 | 5 | -10 | nt | -30 | 0%
Cn1nnc(NC(=O)c2ccccc2)n1 | 3 | 6 | 0.1 | 39 | -7%
CCCC(=O)c1ccc(CP(=O)(OCC)OCC)o1 | -11 | nt | -4.0 | nt | -12%
COCCn1c(SCc2ccccc2F)nc2ccccc2c1=O | 7 | 15 | 9.5 | nt | 9%
COc1ccc(C2c3[nH]c4ccccc4c3CCN2CCCn2cccn2)c(C)c1C (stereo not drawn) | -1 | -5 | -18 | nt | 4%
Cc1cccc(C(=O)OC2CCOC2=O)c1O (stereo not drawn) | 7 | nt | 2.9 | nt | nt
COc1ccc(NC(=O)c2ccc3[nH]c(C)c(C)c3c2)cc1 | -1 | nt | 0.1 | nt | nt

Gathered by group: the entries above with a COOH group.
SMILES | Mtb bLac sens | Arbovirus inh | RecA intein inh | YopH inh | Mtb growth | others
COc1cccc(NC(=O)CSCC(=O)O)c1 | -6 | 3 | -0.3 | -29 | -10%
COc1ccc(CCNC(=O)/C=C/C(=O)O)cc1 | -5 | 17 | 1.9 | nt | -7%
COC(=O)N1[C@H](C)C=C[C@]1(Cc1ccccc1)C(=O)O | 0 | 3 | 1.0 | -10 | -5%

The list continues:
SMILES | Mtb bLac sens | Arbovirus inh | RecA intein inh | YopH inh | Mtb growth | others
Cc1cc(=O)[nH]c(N/N=C/c2ccccc2Cl)n1 | 3 | nt | -0.7 | nt | nt
COc1ccc(-n2c3c(cc(C(=O)NC4CCSC4=O)c2=O)C(=O)CC(C)(C)C3)cc1 (stereo not drawn) | 2 | 0 | 1.9 | -51 | -13%
COc1ccc(N2C(=O)CCC2=O)c(OC)c1 | 2 | 12 | -1.2 | nt | -1%
NC(=O)c1c(NC(=O)CSc2nnc(-c3ccco3)n2N)sc2c1CCCC2 | -8 | -36 | -6.5 | -21 | -1%
COC(=O)c1ccc(NC2(C#N)C(=O)Nc3ccccc32)cc1 (stereo not drawn) | 81 | -14 | 13 | -5 | 29%
COCCCN(CC(=O)Nc1ccc(N2CCOCC2)cc1)S(=O)(=O)c1ccc(Cl)cc1 | 1 | 11 | -2.5 | nt | 3%
COc1cc(OC)cc(C(=O)N2CCC(N3CCCCCC3)CC2)c1 | 4 | 11 | -0.3 | 4 | 0%
Cc1ccc(S(=O)(=O)N2Cc3ccccc3CC2C(=O)NC(C)(C)C)cc1 (stereo not drawn) | -6 | nt | 0.7 | nt | nt
CC1(C)CC(O)(CCNCc2ccc3c(c2)OCO3)CCO1 (stereo not drawn) | -4 | 7 | -1.6 | 5 | 4%
O=C(C1CCN(S(=O)(=O)c2cccc3cccnc23)CC1)N1CCN(C2CCCCC2)CC1 | 2 | 0 | nt | -10 | -8% | Arbovirus inh repeat=7
Cc1cccc(NC(=O)C2CCN(S(=O)(=O)c3ccc(Cl)cc3)CC2)n1 | -11 | nt | -2.9 | nt | nt
CCC(=O)N[C@@H]1CC(C(C)(C)NC(=O)CC)CC=C1C (stereo partly drawn) | -7 | 6 | 2.0 | -1 | -5%
COC(=O)CSc1nc(NC#N)nc(NC(C)(C)C)n1 | 1 | nt | -3.1 | nt | 3%
CCOC(=O)Nc1ccc2c(c1)N(C(=O)C(C)N1CCCC1)c1ccccc1CC2 (stereo not drawn) | 7 | -13 | -8.7 | -13 | -2%
CCOC(=O)Cn1nnnc1C(C(C)C)N(Cc1cccs1)Cc1cc2cc(C)ccc2[nH]c1=O (stereo not drawn) | -3 | -18 | 14 | -5 | -3%
COc1ccccc1CNS(=O)(=O)c1c(C)[nH]c(C)c1C(=O)N1CCCCC1 | 4 | nt | -0.4 | nt | nt
CCCNC(=O)Nc1ccccc1SC | -11 | -3 | -2.7 | nt | 4%
COc1cccc(NC(=O)CN(C)C(=O)C2CCN(C(=O)c3ccccc3C)CC2)c1 | -11 | nt | 0.2 | nt | nt
COc1cc(C2C(C(=O)c3ccco3)=C(O)C(=O)N2CC2CCCO2)ccc1O (stereo not drawn) | 3 | nt | 2.3 | nt | nt
O=C1c2ccccc2-c2cccc(C(=O)N3CCCCC3)c21 | -10 | nt | 1.9 | nt | -8%
COC(=O)c1ccc(NC(=O)CSc2n[nH]c(-c3ccncc3)n2)cc1 | 5 | -6 | 3.6 | -35 | 2%

Screening data deposited in PubChem by several laboratories.
